CSC inhib: cancer stem cell viability inhibitors, primary screen, luminescence. AID 2717, 2010. cancer stem cell-like cells viability. hit rate 1.1% among 300,000. inhibition, % at 7.5 µM;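 active = mean at 75% or more and at least half the replicates too; inconclusive = mean and replicates disagree; tested in HMLE shEcad cells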;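 also: 0% = median of negative and 100% = median of positive control wells; the first replicate is given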
Rce1 inhib: yeast Rce1p protease inhibitors, primary screen, biochemical, fluorescence, cell-free homogeneous. yeast membranes, quenched prenylated peptide cleavage fluorescence. calls only. AID 2563, 2010. CAAX prenyl protease 2 (Saccharomyces cerevisiae (strain ATCC 204508 / S288c)), Q03530. hit rate 0.27% among 290,000;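 active = fall in fluorescence gain of 50% or more versus controls, with final raw signal at or below 3038400; inconclusive = same 50% fall but final raw signal above 3038400; inactive = fall in fluorescence gain under 50%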;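 also: plate controls were neutral control wells for no effect and wells lacking membranes for full effect; tested at 10 µM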
Target sequence (Q03530 whole entry, looked up): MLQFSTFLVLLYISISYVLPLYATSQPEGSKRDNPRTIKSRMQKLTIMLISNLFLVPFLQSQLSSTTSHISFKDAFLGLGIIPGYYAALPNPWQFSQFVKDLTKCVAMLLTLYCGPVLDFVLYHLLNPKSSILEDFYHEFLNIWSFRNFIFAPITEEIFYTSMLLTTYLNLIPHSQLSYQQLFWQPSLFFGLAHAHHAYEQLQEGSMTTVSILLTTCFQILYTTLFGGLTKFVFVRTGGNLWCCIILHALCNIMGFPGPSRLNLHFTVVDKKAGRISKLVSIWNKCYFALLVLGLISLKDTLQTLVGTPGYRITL
PABP polyA inh: PABP poly(A) RNA binding inhibitors, primary screen, biochemical, fluorescence polarization, uHTS. Polyadenylate-binding protein 1 (Homo sapiens), P11940. inhibition, % at 35 µM. hit rate 1% among 290,000. AID 2014, 2009;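 active = 50% or more with normal probe brightness, or confirmed in later tests; inconclusive = above 50% with abnormal brightness, or retests that disagree; inactive = below 50% or failed in later tests; about a fifth of its hits are not listed in these tables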;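 also: calls also rest on retests at 20 µM and on dose response follow-up; controls were probe without protein and protein plus probe with vehicle; some compounds called inactive have numbers as strong as hits; many hits fall short of the cut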
Env fusion inh: inhibitors of HIV-1 Env-driven cell-cell fusion, primary screen, HeLa-JRFL effector, CEM21 target cells, luciferase; inhibition, % at 12.3 µM; hit rate 1.1% among 360,000; AID 651610, 2012;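 active = mean replicate inhibition score of at least 50 and every replicate individually at or above 50; inconclusive = only one of the two criteria met; inactive = mean below 50 and not all replicates reaching 50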;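 also: 0% = plate neutral controls and 100% = maraviroc near 300 nM; one replicate is shown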
eIF4H inh: human eIF4H binding inhibitors, primary screen, translation initiation inhibitor project, biochemical, uHTS, fluorescence polarization; Eukaryotic translation initiation factor 4H (Homo sapiens), Q15056; eIF4H fluorescence polarization binding assay; inhibition, % at 35 µM; hit rate 0.94% among 290,000;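 active = 50% or more with normal probe brightness, or confirmed in later tests; inconclusive = above 50% with abnormal brightness, or retests that disagree; inactive = below 50% or failed in later tests; about a fifth of its hits are not listed in these tables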;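 also: calls also rest on retests at 20 µM and on dose response follow-up; 0% = protein and probe with vehicle and 100% = probe without protein; strong numbers were not always called active; many hits fall short of the cut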
MT1-MMP act inh: blockers of MT1-MMP proenzyme processing, primary screen, HT1080 RFP-PRO-GFP cells, GFP/RFP fluorescence; hit rate 0.061% among 360,000; GFP/RFP ratio change, % at 20 µM; Matrix metalloproteinase-14 (Homo sapiens), P50281; AID 651647, 2012; GFP/RFP ratio fluorescence, overnight; percent of plate control window, DMSO zero;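 active = GFP/RFP ratio change of at least 30% with cell ATP level not reduced by more than half and red fluorescence within 50% of control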; also: strong numbers were not always called active
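Test system: HT1080 RFP-PRO-GFP cells; Benchmarks: DMSO and RFP-L50D-GFP cell wells; Timing: cells overnight before dosing, compound overnight, 37 °C, 5% CO2; Compound: one 20 µM compound dose with 1% DMSO; Read-out: GFP/RFP fluorescence ratio.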
Yeast UUG start: modulators of yeast start codon fidelity, primary screen, whole organism, S. cerevisiae, single point, plate reader; S. cerevisiae UUG-firefly luciferase reporter, luminescence/redox ratio; activity score, % at 18.7 µM; hit rate 0.13% among 350,000;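 active = replicate mean at a twofold rise or more, about +100% in these data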;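 also: firefly luciferase made from a UUG start codon reports start codon fidelity; reporter light over untreated wells divided by growth signal over untreated wells; some hits fall short of that in this replicate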
MT1-MMP act inh RFP: further read-out of MT1-MMP act inh, marked with its call; RFP signal change, %; measured here: RFP expression control read;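 0 = vehicle wells; hits needed this value within 50% of zero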
The depositor's hits bear a star; i = inactive; u = inconclusive; x = no result given; & = joins results of further samples; [ ] = remark or other dose. No enrichment for hits. About 3% of those tested had a hit in this group.

SMILES	CSC inhib	Rce1 inhib	PABP polyA inh	Env fusion inh	eIF4H inh	MT1-MMP act inh	MT1-MMP act inh RFP	Yeast UUG start
Cc1ccc(-c2cc(C(=O)NCC(c3ccccc3)N(C)C)c3ccccc3n2)o1 (stereo unspecified)	10	x	x	-27	x	-1	4	-13
CCOc1ccccc1NC(=O)N1CCC(c2nc3ccc(C)cc3[nH]2)CC1	-11	i	1	17	7	6	1	-8
CCCN1CCN(C(c2cc3cc(OCC)ccc3[nH]c2=O)c2nnnn2C2CCCCC2)CC1 (stereo unspecified)	x	i	-4	-26	6	-2	2	x
CC(C)(C)NC(=O)NC(=O)COC(=O)CCC1CCCCC1	-5	i	10	x	-5	-4	1	0
COc1ccc(C2C(C#N)=C(N)Oc3cc(O)ccc32)cc1C (stereo unspecified)	6	i	5	16	-11	-22	-4	-5
CCC(=Nc1ccccc1O)C1=C(O)CC(c2ccccc2)CC1=O (stereo unspecified)	45	i	28	-5	22	-11	-8	5
O=C(N/N=C/c1ccc([N+](=O)[O-])cc1)c1[nH]ncc1Br	0	i	24	-9	-8	3	1	-9
COC(=O)c1cc(NC(=O)c2cccc(C(F)(F)F)c2)c(=O)oc1C/C=N/OCc1cccc(Cl)c1Cl	10	i	u	x	u	-84	8	-9
COc1ccc(/C=C/c2ccncc2)cc1	8	i	3	-456	-18	1	2	-23
CSc1nsc(SCC(=O)Nc2cccc(C(=O)O)c2)n1	0	i	-2	6	1	2	6	-3
Cc1ccc(S(=O)(=O)Nc2cc(C(=O)Nc3cc(C)cc(C)c3)ccc2Cl)cc1	2	i	6	x	-15	5	-3	4
CC(NC(=O)CSc1nnc(COc2ccccc2)o1)c1ccccc1 (stereo unspecified)	x	i	-8	-96	13	4	4	-2
O=Cc1ccccc1OCc1ccc2c(c1)OCO2	51	i	-17	-151	7	2	-6	-6
COc1ccccc1NS(=O)(=O)c1cc(N)ccc1N1CCOCC1	7	x	x	15	x	0	-8	-12
COC(=O)c1cnc(Oc2ccc(NC(=O)NC(=O)c3ccccc3Cl)cc2)cc1C(F)(F)F	19	i	8	-19	0	1	3	x
COc1c2c(cc(O)c1C(C)=O)OC(C)(C)C=C2	x	x	x	-10	x	1	0	1
CSc1ccc(S(=O)(=O)Nc2ccc3c(c2)NC(=O)CC3)cc1	2	i	2	24	-3	-3	-21	x
NNC(=O)C(Cc1cnc[nH]1)NC(=O)OCc1ccccc1 (stereo unspecified)	-3	i	1	11	-8	2	5	-5
CC(=O)Nc1cccc(NCC(=O)Nc2cc(S(=O)(=O)N3CCCCC3)ccc2Cl)c1	-13	x	x	21	x	2	-13	-7
COC(=O)c1cccc(NC(=O)CSc2nc(=O)cc(N)n2-c2ccccc2)c1	-4	i	11	-99	5	1	0	-12
Cc1cc(C(=O)OCC(=O)N2CCOCC2)c(C)n1-c1ccccc1	-19	x	x	x	x	-2	6	-5
O=C1CCSc2ccc(Cl)cc2N1Cc1ccc(Cl)cc1	4	i	13	x	0	2	-8	12
CCCCNC(=O)C1CCC(CNS(=O)(=O)c2ccc(NC(C)=O)cc2)CC1 (stereo unspecified)	-2	i	9	4	-1	0	9	-3
O=C(Cn1ncc2c1-c1ccccc1OC2)N1CCN(Cc2ccc3c(c2)OCO3)CC1	8	i	2	-2	-11	14	-1	-13
Nc1ccc(C(=O)Nc2ccc3cc(S(=O)(=O)O)ccc3c2)cc1	x	x	x	-17	x	1	2	2

The list continues.
SMILES	CSC inhib	Rce1 inhib	PABP polyA inh	Env fusion inh	eIF4H inh	MT1-MMP act inh	MT1-MMP act inh RFP	Yeast UUG start
COc1ccc(CCN2C(=O)C(C)=C(C)C2=O)cc1OC	-9	i	12	-3	9	-2	-3	0
C[C@H](CO)N1C[C@H](C)[C@@H](CN(C)C(=O)NC2CCCCC2)Oc2ccc(NC(=O)Nc3ccccc3)cc2C1=O	x	x	x	-21	x	6	7	1&-1
CCOc1ccc(N(C)S(=O)(=O)c2csc(C(N)=O)c2)cc1	-13	i	-6	3	6	2	-6	-3
COc1cccc(OCc2cc(C(=O)N(C)Cc3nc(C)cs3)no2)c1	-8	x	-6	-35	-6	0	-1	-5
COCCNC(=O)c1c(N)n(-c2cccc(C)c2)c2nc3ccccc3nc12	-6	i	7	x	-4	8	6	-6
Cc1[nH]nc2c1C(c1ccsc1)C(C#N)=C(N)O2 (stereo unspecified)	-6	i	1	x	-10	-7	-5	-20
C[C@H](CO)N1C[C@H](C)[C@@H](CN(C)Cc2ccccc2)Oc2ccc(NC(=O)Cn3cnnn3)cc2C1=O	1	x	x	-15[16.7 µM]	x	-1	4	-16&5
O=C(CCCC1=NS(=O)(=O)c2ccccc2N1)N1CCN(c2ccc(Cl)cc2)CC1	0	i	0	-11	-2	5	-5	-18
CCC(=O)Nc1ccc2c(c1)OC[C@@H](C)N(Cc1cccc(F)c1)C[C@@H](C)[C@@H](OC)CN(C)C2=O	x	x	x	u	x	-1	3	-14
Cc1ccc(S(=O)(=O)Nc2ccccc2F)cc1C(=O)NNC(=O)c1ccccc1O	61	i	x	-18	x	-2	-9	-16
O=c1c2c(-c3ccccc3)ccnc2[nH]n1-c1ccccc1	15	i	-5	-19	-2	3	-3	-17
O=C(NC(c1ccc2c(c1)OCO2)c1ccccn1)C1CCN(CCOc2ccc(Cl)cc2Cl)CC1 (stereo unspecified)	x	x	x	-24	x	-3	1	-11
CCOc1ccc(S(=O)(=O)NCCC(=O)N2CCN(c3ccc(OC)cc3)CC2)cc1	-10	i	-2	31	-7	-1	-6	x
O=c1[nH]c(=S)[nH]c2sccc12	-13	i	-2	-7	6	2	1	x
Cc1cccc(N2N=C(C(=O)Nc3ccc(Cl)c(S(=O)(=O)N4CCOCC4)c3)CCC2=O)c1	x	x	x	-13	x	4	-1	-16
CN(Cc1cccc(Cl)c1Cl)C(=O)c1ccc(NC(=O)CC#N)cc1	17	i	8	-4	-10	-3	-2	x
Fc1ccc(Oc2nc(-c3ccccc3)nnc2C(F)(F)F)cc1	18	i	12	x	9	-9	5	-5
COc1ccc(-c2nnc(SCC(=O)Nc3ncc(C)s3)n2-c2ccccc2)cc1OC	33	i	-4	-94	-4	4	-2	x
COCCn1c(Cc2ccccc2)nnc1SCc1ccc([N+](=O)[O-])cc1	7	i	-4	9	9	-5	1	x
C1=Cc2ccccc2Nc2ccccc21	-6	i	-1	5	3	-1	6	x
CN(Cc1c(C(=O)N(C)Cc2ccccc2)nc2ccccn12)CC1Cc2ccccc2O1 (stereo unspecified)	-3	i	9	8	-6	1	-6	1
COc1cccc(-n2c(C)nc3c(cnn3-c3ccc(C)cc3)c2=O)c1	5	i	-5	x	-14	-3	-20	-5
CCn1c(=O)cc(OCC(=O)NCc2cccnc2)c2ccccc21	-14	i	12	-30	-2	3	0	-15
CC(=O)c1cccc(N(C(=O)CNC(=O)c2ccco2)C(C(=O)NC2CCCC2)c2ccncc2)c1 (stereo unspecified)	-4	i	2	0	-7	16	4	-6
COc1ccccc1NC(=O)CCc1c(C)[nH]c(=O)c(C#N)c1C	-1	i	-5	x	7	0	3	-16

More compounds
SMILES	CSC inhib	Rce1 inhib	PABP polyA inh	Env fusion inh	eIF4H inh	MT1-MMP act inh	MT1-MMP act inh RFP	Yeast UUG start
O=C(NC(=S)N1CCCCC1CO)c1cccs1 (stereo unspecified)	3	x	x	-26	x	3	1	2
COc1ccc(NC(=O)[C@@H](NS(=O)(=O)c2cccc(Cl)c2)C(C)C)cc1S(=O)(=O)N1CCOCC1	-11	x	x	-17	x	3	2	-1
COc1c(O)c(=O)n2c3ccccc3c3ccnc1c32	-9	i	x	x	x	-61	9	-8
O=C(OCCC1Oc2cccnc2NC1=O)c1ccc([N+](=O)[O-])cc1 (stereo unspecified)	-1	i	5	5	7	x	x	x
O=S(=O)(c1ccccc1F)N1CCN(Cc2cc3c(cc2O)OCO3)CC1	-7	x	x	10	x	1	4	16
C=CCc1cccc(/C=N/NC(=O)CCCNc2ccc(C)cc2)c1O	49	i	-8	10	-9	7	7	x
O=C(Nc1ccccc1SCC1CSc2nc3ccccc3c(=O)n21)c1cccc(Cl)c1 (stereo unspecified)	30	i	-6	x	-7	-4	-2	2
Cn1c(=O)cc(OCCCC(=O)NCc2ccc(F)cc2Cl)c2ccccc21	-7	x	3	22	10	9	9	x
COc1ccc(OC)c(NC(=O)CC2SC(=N)N(c3ccccc3)C2=O)c1 (stereo unspecified)	1	i	-6	12	-15	-2	0	-4
O=C(OC1CCOC1=O)c1ccc(Cl)c(S(=O)(=O)N2CCCCC2)c1 (stereo unspecified)	-8	i	1	10	-1	2	2	-8
NC/C(=N\O)c1ccc(Cl)cc1Cl	-4	i	2	x	-2	-3	1	-6
CC(OC(=O)Cn1cnc2ccccc2c1=O)C(=O)N(C)c1ccccc1 (stereo unspecified)	-14	i	x	x	x	-4	1	-21
Fc1ccc(CO/N=C2\CCCc3nonc32)cc1	5	i	-8	-14	2	-1	0	-8
Cc1cc(C)n(-c2ccc(S(=O)(=O)N3CCCC3)cc2[N+](=O)[O-])n1	-9	i	-11	-2	-6	-1	-2	-7
COc1ccc(CN(C)CC(=O)NCC(=O)Nc2c(C)cccc2C)cc1	1	x	x	-6	x	-4	0	-4
CCn1c(SCC(=O)N2CCN(S(=O)(=O)c3ccccc3)CC2)nnc1-c1cccs1	-9	i	-2	-49	4	-1	-1	-8
CN(C)c1ccc(S(=O)(=O)NCC(=O)OCC(=O)c2ccc[nH]2)cc1[N+](=O)[O-]	-4	x	x	x	x	-2	6	-12
CCn1ncc([N+](=O)[O-])c1C(=O)Nc1ccc(C(=O)N2CCCCC2)cc1	x	i	-10	x	-2	12	1	5
COc1ccccc1NC(=O)CCc1nnc2ccc(NCc3ccco3)nn12	-10	i	10	7	3	-2	1	-15
COc1ccc(CCN2CC(C(=O)OCC(=O)NC(C)c3cccc(Cl)c3)CC2=O)cc1OC (stereo unspecified)	x	x	x	-1	x	9	0	-19
Cn1cc([N+](=O)[O-])c(C(=O)N/N=C\c2c[nH]c3ccccc23)n1	1	i	-8	7	10	-2	4	-27
Cc1cc(S(=O)(=O)N2CCCOC2CNC(=O)C(=O)NCc2cccs2)ccc1F (stereo unspecified)	-5	i	6	14	4	0	-2	0
COc1cnn(-c2ccccc2)c(=O)c1OC	1	i	3	10	-4	-1	2	x
Cc1nc(CS(=O)(=O)c2ccc(Cl)cc2)cc(Sc2ccccc2Cl)n1	-4	i	-4	x	-2	0	-4	x
CN1C(=O)c2cccc3c(S(N)(=O)=O)ccc1c23	-2	i	3	6	7	-3	2	-5
CCOC(=O)C1CCN(C(=O)COc2ccc(S(=O)(=O)N3CCOCC3)cc2)CC1	-13	i	0	-5	-6	-2	1	3
CCOc1ccc2oc(=O)cc(CN3CCOCC3)c2c1	-2	i	-6	9	-9	0	-3	-6
O=c1cc(N2CCCCC2)c(-c2ccccc2)nn1Cc1ccc(Cl)cc1	103*	i	21	x	22	-20	-22	-11
CC(C)NC(=O)CCCn1c(=S)[nH]c2cc3c(cc2c1=O)OCO3	-9	i	-6	-20	-7	1	-6	-8
